Vaccinia Venus = qHTS for Stage-Specific Inhibitors of Vaccinia Orthopoxvirus: Venus Reporter Primary qHTS; Vaccinia virus Venus reporter expression, fluorescence; AID 720580, 2013; Potency, µM (doses to about 36.5 µM), for inactives: top-dose activity change, negative = inhibition, hits mostly inhibitors; hit rate 0.46% among 330,000; active means well fitted inhibition curve with a large enough effect; inconclusive means small, poorly fitted or top-dose-only effect; inactive means no such curve, though single readings can be large or run the other way; tested in A549 cells; note: nearly all actives have a fitted effect of over 30% in size; inactives centre near -10
VACV mCherry inh = qHTS for Stage-Specific Inhibitors of Vaccinia Orthopoxvirus: mCherry Reporter Primary qHTS. Vaccinia virus mCherry reporter infection, fluorescence; about a quarter of the inactives have no number. Potency, µM (top dose mostly 36.5 µM), for the others: at the top dose activity change, negative = inhibition, usual class: inhibitors. hit rate 0.63% among 310,000; active = well fitted inhibition curve with a large enough effect; inconclusive = small, poorly fitted or top-dose-only effect; inactive = no such curve, though single readings can be large or run the other way; tested in A549 cells; note: nearly all actives have a fitted effect of over 35% in size; inactives centre near -10
Active calls of the source: *; i = inactive; ? = inconclusive; . = not tested or not shown; & = joins results of further samples; [ ] = remark or other dose. % is set by controls: 0 for no effect and ±100 for the full control effect; potency is the fitted concentration of half-maximal effect.

(1) CCOc1ccc(CCNC(=O)CCc2c(C)nc3c(c(C)nn3-c3ccc(C)c(C)c3)c2C)cc1
(2) Clc1cccc(C[n+]2cc(-c3ccccc3)n3c2CCC3)c1
(3) CSCC[C@H](NC(=O)[C@H](Cc1ccccc1)n1c(=O)[nH]c2ccccc2c1=O)C(=O)N1CCC(C(=O)O)CC1
(4) CC1CCCCN1Cc1nc2c(c(=O)n(C)c(=O)n2C)n1Cc1ccc(Br)cc1 (stereo not given)
(5) COc1ccccc1NC(=O)c1ccc(COc2ccc3c(c2)CCC3)cc1
(6) CN1C(=O)S/C(=C/c2ccccc2OCc2ccc(C(=O)O)cc2)C1=O
(7) O=C1CC(NCc2ccc3c(c2)OCO3)C(=O)N1Cc1ccc2c(c1)OCO2 (stereo not given)
(8) COc1ccc(OC)c(NC(=O)[C@H](Cc2ccccc2)N2Cc3ccccc3C2=O)c1
compound no.,1,2,3,4,5,6,7,8
Vaccinia Venus,6%,-29%,18%,-13%,-8%,-8%,2%,4%
VACV mCherry inh,-6%,0%,1%,-7%,-4%,2%,-7%,0%

(9) CCOC(=O)c1sc(Nc2ccccc2)nc1C
(10) O=C(CN(C(=O)Cn1nnc(-c2ccc(F)cc2)n1)c1cnc2ccccc2c1)NCC1CCCO1 (stereo not given)
(11) CCN(CC(=O)Nc1ccc2c(c1)OCCO2)CC(=O)Nc1ccccc1C(F)(F)F
(12) CCN(Cc1ccccc1)C(=O)CCS(=O)(=O)c1ccc2c(c1)n(C)c(=O)c(=O)n2C
(13) Cc1coc2c(C)c3oc(=O)c(CCC(=O)NCCCN4CCOCC4)c(C)c3cc12
(14) COc1ccc(-c2noc3c2-c2nc(-c4ccccc4C)sc2CC3)cc1
(15) CC(C)[C@H](NC(=O)c1ccccc1)C(=O)OCc1nnc(-c2ccccc2)o1
(16) Cc1ccc(C(C(=O)NC2CCCC2)N(CCCO)C(=O)Cn2nnc(-c3ccc(C)o3)n2)cc1 (stereo not given)
compound no.,9,10,11,12,13,14,15,16
Vaccinia Venus,?,-8%,-12%,-6%,11%,-20%,2%,6%
VACV mCherry inh,.,i,-16%,-1%,-3%,-16%,-9%,6%

(17) COc1ccc(C)cc1N(CC(=O)N1CCCCCC1)S(=O)(=O)c1ccccc1
(18) CCOc1ccccc1-c1nc(C(N)=O)c2[nH]c(=O)n(-c3ccc(F)cc3)c2n1
(19) Cc1cc(=O)oc2cc(NC(=O)C(C)Oc3ccccc3)ccc12 (stereo not given)
(20) COc1ccccc1/C=C/C(=C1/C(=O)N(c2ccccc2)N=C1C)c1ccc(C)cc1
(21) CC1CCc2sc(C(=O)NC(C)C3CCCO3)cc2C1 (stereo not given)
(22) COC(=O)c1sc(N)c(C(=O)OC)c1COC(=O)C12CC3CC(CC(O)(C3)C1)C2
(23) O=C(NC1CCCCC1)c1ccc([N+](=O)[O-])o1
(24) CC(NC(=O)C1CSC2(C)CCC(=O)N12)c1ccccc1Cl (stereo not given)
compound no.,17,18,19,20,21,22,23,24
Vaccinia Venus,3%,-24%,-6%,-18%,-9%,-5%,?,3%
VACV mCherry inh,-1%,-13%,i,i,-10%,-19%,?,-12%

Records 21–22 of the list above:
(21) CC1CCc2sc(C(=O)NC(C)C3CCCO3)cc2C1 (stereo not given)
(22) COC(=O)c1sc(N)c(C(=O)OC)c1COC(=O)C12CC3CC(CC(O)(C3)C1)C2
compound no.,21,22
Vaccinia Venus,-9%,-5%
VACV mCherry inh,-10%,-19%

Remaining list, next part
(25) COc1ccc(C(=O)/C=C/c2cccs2)c(OC(=O)c2cccc([N+](=O)[O-])c2)c1
(26) CCOC(=O)c1ccc(NC(=O)CSc2nncn2-c2cccnc2)cc1
(27) O=C(c1ccc2c(c1)OCO2)C1CCCN(C2CCN(CCc3ccccc3)CC2)C1 (stereo not given)
(28) C=C(C)CN=C1SC(C(=O)Nc2sc3c(c2C(=O)OC)CCC3)C(N)=C1C(N)=O (stereo not given)
(29) COc1ccccc1NC(=O)c1cc2ccc3cccnc3c2[nH]1
(30) COc1ccc(/C=C2\SC(=NCc3ccccc3)N(Cc3ccccc3)C2=O)cc1OC
(31) CN(C)C(=N)c1n[nH]nc1SCc1ccccc1
(32) O=C(c1ccc(Cl)cc1)C1CCN(C(=O)N2CCOCC2)CC1
compound no.,25,26,27,28,29,30,31,32
Vaccinia Venus,-20%,2%,-24%,-9%,7%,-4%,-8%,-10%
VACV mCherry inh,i,i,i,-3%,-11%,.,-6%,-14%

(33) COc1cc(OC)c(C(=O)CCCN2CCCC2)c(OC)c1
(34) Nc1ccc2c(c1)C(=O)c1ccccc1C2=O
(35) CC1CCN(C2CC(=O)N(c3ccccc3)C2=O)CC1 (stereo not given)
(36) CC(=O)OC[C@@H]1CN(Cc2ccccc2)C[C@H](n2cnc3c(N4CCOCC4)ncnc32)O1
(37) CC(=O)Oc1ccc2c(c1OC(C)=O)OCC1(O)Cc3c(cc(OC(C)=O)c(OC(C)=O)c3OC(C)=O)C21 (stereo not given)
(38) O=C1CCC(C(=O)N2CCCC(Nc3ccc(F)cc3)C2)=NN1 (stereo not given)
(39) CN(CC(=O)Nc1ccccc1Br)C(=O)c1cccn1C
(40) O=[N+]([O-])c1cc(Cl)cc(/C=N/n2cnnc2)c1O
compound no.,33,34,35,36,37,38,39,40
Vaccinia Venus,-9%,5%,-6%,-2%,0%,-5%,-10%,-10%
VACV mCherry inh,-17%,-13%,-1%,1%,i,-10%,-10%,i

(41) C=CCn1c2ccccc2c2nnc(SCc3ccc4nonc4c3)nc21
(42) O=[N+]([O-])c1cnc[nH]1
(43) CC12CCC(C(=O)N(CSC(=S)N/N=C\c3ccccc3Cl)C1=O)C2(C)C (stereo not given)
(44) CCOC(=O)Nc1ccc2ncn(C)c(=O)c2c1
(45) Cc1cc(C)cc(NS(=O)(=O)c2ccc(NC(=S)Nc3ccccc3)cc2)c1
(46) CC(=O)Nc1ccc(NC(=O)CSc2nnc(C)c(=O)[nH]2)cc1
(47) Cc1cc(=O)oc2ccc(OC(=O)c3cccc(S(=O)(=O)N4CCOCC4)c3)cc12
(48) O=S(=O)(NC1CCCc2ccccc21)c1cnc[nH]1 (stereo not given)
compound no.,41,42,43,44,45,46,47,48
Vaccinia Venus,-4%,-15%,-1%,?,-7%,8%,-2%,0%
VACV mCherry inh,1%,-1%,-10%,i,-5%,-14%,i,-15%

(49) CCOc1ccc(NC(=O)CSc2cc(C)c3ccccc3n2)cc1
(50) Cc1cc(C(=O)CN2C(=O)C(=O)N(Cc3ccccc3)C2=O)c(C)n1Cc1ccccc1
(51) COc1ccc(OC)c(NS(=O)(=O)c2ccc(NC(=O)C3COc4ccccc4O3)cc2)c1 (stereo not given)
(52) O=S(=O)(NCc1nc2cccnc2n1Cc1ccc(F)cc1)c1ccc2c(c1)CCCC2
(53) Cc1cc2ccccc2n1CCNC(=O)c1ccc(F)cc1
(54) CO[C@H]1[C@@H](OC)CC(OC2OC(CO)C(O)C(O)C2O)/C(=C\C#N)[C@@H]1O (stereo not given in full)
(55) CCN1C(=O)N[C@@H](CCc2ccccc2)C(C(=O)OC)=C1C
(56) CCC(C)(C)NC(=O)C(c1cccnc1)N(CCOC)C(=O)Cn1nnc2ccccc21 (stereo not given)
compound no.,49,50,51,52,53,54,55,56
Vaccinia Venus,-7%,-16%,?,-18%,-18%,-1%,-6%,-1%
VACV mCherry inh,-12%,-26%,?,-17%,-8%,-9%,-24%,i

(57) COCCNC(=O)CC(NS(=O)(=O)c1ccc(C)cc1)c1ccco1 (stereo not given)
(58) O=C1CCN(Cc2ccccc2)S(=O)(=O)c2ccccc21
(59) O=C(NC1CC1)c1cc2cc3ccccc3nc2s1
(60) O=C(NC(c1ccc(Cl)cc1)c1ccsc1)C1CCN(Cc2cccc(Cl)c2)CC1 (stereo not given)
(61) COc1ccc(C2=CC(c3ccc(Cl)cc3)n3cnnc3N2)cc1OC (stereo not given)
(62) CCCc1cc(=O)[nH]c(SCC(=O)Nc2cc(S(=O)(=O)N3CCOCC3)ccc2Cl)n1
(63) CC(C)C1(C(C)C)OC(=O)c2ccccc21
(64) O=C(Oc1ccc([N+](=O)[O-])cc1)N1CCC(N2CCCCC2)CC1
compound no.,57,58,59,60,61,62,63,64
Vaccinia Venus,-11%,-8%,-5%,-14%,-23%,-10%,6%,-4%
VACV mCherry inh,.,-3%,-10%,-1%,?,-2%,i,-32%

(65) CC1CC(N(C(=O)c2ccccc2Cl)c2ccccc2)c2ccccc2N1 (stereo not given)
(66) c1csc(-c2cnc3n2CCCC3)c1
(67) Cc1cccc(NS(=O)(=O)Cc2ccccc2)c1C
(68) Cc1cccc2c(C(O)c3cn(C)c4ccccc34)c[nH]c12 (stereo not given)
(69) CC[C@@H]1CCCCc2ccccc2[C@@H](C(=O)C[C@@H](O)CC(C)=O)OC1=O
(70) NC(=O)c1nc(Nc2ccccc2)sc1NC(=O)c1ccccc1Br
(71) Cc1nc(NC(=O)c2c(-c3ccccc3)c(-c3ccccc3)nn(C)c2=O)sc1C
(72) COc1ccc(CN2CCN(C(C)C(=O)N3CCc4ccccc43)CC2)cc1OC (stereo not given)
compound no.,65,66,67,68,69,70,71,72
Vaccinia Venus,?,-7%,-18%,15%,-4%,-17%,-21%,-1%
VACV mCherry inh,?,-18%,-5%,-11%,i,-18%,-12%,i

(73) c1ccc2c(c1)nc1n2CCS1
(74) Cc1ccc(NS(=O)(=O)c2ccc(CCC(=O)NCc3cccnc3)cc2)cc1
(75) CCc1ccc(CN(C(=O)c2ccco2)C2CCS(=O)(=O)C2)cc1 (stereo not given)
(76) Cc1ccc(-c2onc3ccc(C4OCCO4)cc23)cc1
(77) CN(C)c1ccc(C(=O)Nc2ccc(-c3nc4ccccc4o3)cc2)cc1
(78) CN[C@@H](C)[C@H](O)c1ccccc1
(79) O=C(CSc1ccc(-c2ccccc2)nn1)Nc1ccc2c(c1)OCCO2
(80) CCCNc1nc(C)c(C(C)=O)cc1C#N
compound no.,73,74,75,76,77,78,79,80
Vaccinia Venus,-2%,-14%,-10%,-13%,-17%,0%&-13%,0%,-25%
VACV mCherry inh,-14%,i,i,-20%,i,-11%&-8%,-10%,.

Compound profiles, from the list above. Screens in order: Vaccinia Venus	VACV mCherry inh
Record of CC(=O)Oc1ccc2c(c1OC(C)=O)OCC1(O)Cc3c(cc(OC(C)=O)c(OC(C)=O)c3OC(C)=O)C21 (stereo not given) : 0%	i
Record of Clc1cccc(C[n+]2cc(-c3ccccc3)n3c2CCC3)c1 : -29%	0%
Record of O=C(c1ccc2c(c1)OCO2)C1CCCN(C2CCN(CCc3ccccc3)CC2)C1 (stereo not given) : -24%	i
Record of CCOC(=O)c1sc(Nc2ccccc2)nc1C : ?	.
Record of CN[C@@H](C)[C@H](O)c1ccccc1 : 0%&-13%	-11%&-8%

Following part.
(81) CCOn1c(=O)c(-c2cccc([N+](=O)[O-])c2)[n+]([O-])c2ccccc21
(82) CCn1ncc([N+](=O)[O-])c1C(=O)N1CCc2ccccc2C1
(83) O=S(=O)(NC1CC1)c1ccc(S(=O)(=O)N2CCc3ccccc32)cc1
(84) Cc1ccc(CC(=O)N(C)CC(=O)N(CC(C)C)c2c(N)n(CC(C)C)c(=O)[nH]c2=O)cc1C
(85) O=c1n(Cc2ccc(F)cc2)nc2n1-c1cc(Cl)ccc1OC2
(86) OCn1c2ccccc2c2ccccc21
(87) Fc1cc(Cl)ccc1Nc1nc(NCc2ccccc2)nc2ccsc12
(88) O=C(N/C(=C\c1ccc([N+](=O)[O-])cc1)C(=O)N1CCCCC1)c1ccco1
(89) COc1cccc(C(=O)c2c(-c3ccccc3)ncc3cc(OC)c(OC)cc23)c1
compound no.,81,82,83,84,85,86,87,88,89
Vaccinia Venus,6%,10%,-21%,-8%,-8%,-4%,-12%,-11%,-10%
VACV mCherry inh,-6%,35%[activator],-24%,-14%,-7%,-10%,-19%,-3%,-6%

High-throughput results from PubChem BioAssay.
